Compound activity: PubChem BioAssay, National Center for Advancing Translational Sciences (NCATS)
Vaccinia Venus: qHTS for Stage-Specific Inhibitors of Vaccinia Orthopoxvirus: Venus Reporter Primary qHTS; Vaccinia virus Venus reporter expression, fluorescence; Potency, µM (series often up to 36.5 µM), for inactives: top-dose activity change, negative = inhibition, usual class: inhibitors; hit rate 0.46% among 330,000; active means well fitted inhibition curve with a large enough effect; inconclusive means small, poorly fitted or top-dose-only effect; inactive means no such curve, though single readings can be large or run the other way; tested in A549 cells; also: nearly all actives have a fitted effect of over 30% in size; inactives centre near -10
Vaccinia mCherry: qHTS for Stage-Specific Inhibitors of Vaccinia Orthopoxvirus: mCherry Reporter Primary qHTS; Vaccinia virus mCherry reporter infection, fluorescence; about a quarter of the inactives have no number; Potency, µM (top dose mostly 36.5 µM), for the others: at the highest dose activity change, negative = inhibition, actives largely listed as inhibitors; hit rate 0.63% among 310,000; active = well fitted inhibition curve with a large enough effect; inconclusive = small, poorly fitted or top-dose-only effect; inactive = no such curve, though single readings can be large or run the other way; tested in A549 cells; also: nearly all actives have a fitted effect of over 35% in size; inactives centre near -10
Numbers without * were called inactive; i = inactive; ? = inconclusive; / = no result given; & = joins results of further samples; [ ] = dose if it differs, or a comment. % is scaled to controls: 0 for no effect and ±100 for the full control effect; potency is read from the fitted curve at half-maximal effect.

compound,Vaccinia Venus,Vaccinia mCherry
Cc1ccc(Nc2nc(OC(C(F)(F)F)C(F)(F)F)nc(N3CCOCC3)n2)cc1,-46.7%,/
Cc1cc(C(=O)NCc2cccc(Br)c2)c2c(C)nn(-c3ccccc3)c2n1,-15.3%,-7.3%
O=C(NCc1ccco1)c1ccc(Br)s1,-15.2%,i
Cc1ccccc1NS(=O)(=O)c1cc(C(=O)Nc2cccc([N+](=O)[O-])c2)ccc1C,11.2µM*,?
O=C(COC(=O)c1ccc(O)cc1)Nc1ccc2[nH]c(=O)[nH]c2c1,-5.7%,i
O=C(NCc1cccc(Cl)c1)c1ccc2c(c1)OCO2,-9.9%,-12.1%
COc1ccccc1CNC(=O)c1ccc(OCc2c(C)noc2C)c(OC)c1,3.5%,-2.5%
Cc1cccc(NC(=S)NCCN2CCOCC2)c1C,-6.2%,i
CCCN1CCc2cc(O)cc3c2[C@H]1Cc1ccc(O)c(O)c1-3,-14.7%&-14.1%,-1.6%&-9.7%
O=C1/C(=C/c2ccccn2)COc2ccccc21,-8.4%,-16.3%
O=C(/C=C/c1ccc(F)cc1)NC(=S)NNC(=O)c1cnccn1,-12.5%,i
COc1ccc(C(=O)c2ccccc2)c2c(O)ccc(C(=O)c3ccccc3)c12,?,/
COCCNS(=O)(=O)c1ccc2c(c1)n(C)c(=O)n2C,2.2%,-12.8%
COc1ccc(C(=O)Nc2ccccc2C(=O)Nc2ccc(C(=O)O)cc2)cc1,-6.3%,-14.8%
Cc1ccc(S(=O)(=O)N2CCOCC2)cc1NC(=O)COC(=O)COc1ccccc1[N+](=O)[O-],0.5%,i

Carrying on.
compound,Vaccinia Venus,Vaccinia mCherry
CC(C)(C)C1CCC2(CC1)SCC(=O)N2c1ccccc1 (configuration not stated),0.2%,-9.5%
CSc1ccc(CN2CCC(n3nccc3NC(=O)C3CCOC3)CC2)cc1 (configuration not stated),-15.9%,-4.1%
COC(=O)c1ccc(/C=N/Nc2nc3ccccc3[nH]2)cc1,-7.0%,?
O=Nc1c2cc(-c3ccccc3)[nH]nc-2c2ccccc12,-21.3%,-17.3%
O=C(CCn1c(=O)c2ccccc2n(Cc2cccc([N+](=O)[O-])c2)c1=O)N1CCc2ccccc2C1,-18.2%,-13.0%
CS(=O)(=O)N1N=C(c2ccccc2)CC1c1cccs1 (configuration not stated),-10.1%,/
O=C(COC(=O)c1ccccc1Br)NC1CCCCCCC1,-13.5%,-16.6%
CCNC(=O)NS(=O)(=O)c1cnccc1Nc1cccc(Cl)c1,-10.4%,-22.6%
O=C(COc1ccccc1)Nc1cc(NC(=O)COc2ccccc2)cc(C(=O)O)c1,0.0%,-14.0%
COc1ccc(OC)c(N=c2ssnc2Cl)c1,-7.0%,-10.8%
Cc1ccc(CNC(=O)C2CCN(S(=O)(=O)c3c(C)noc3/C=C/c3cccs3)CC2)cc1,-3.7%,-8.8%
c1nc(NCC2(N3CCOCC3)CCCCC2)c2ccsc2n1,-7.1%,-8.2%
CC1(C(=O)NS(=O)(=O)c2ccc(C#N)cc2)CCN1C(=O)C1(c2ccc(Cl)cc2)CCC1 (configuration not stated),-7.4%,i
Fc1ccc(NCc2n[nH]c(=S)n2Cc2ccccc2)cc1,-4.6%,-10.6%
CCn1c(SCC(=O)Nc2ccc3c(c2)OCCO3)nnc1C1CC1,0.0%,-3.4%

The list goes on:
compound,Vaccinia Venus,Vaccinia mCherry
COC(=O)[C@@]1(Cc2ccc(OC)cc2)[C@H]2c3cc(C(=O)N4CCCC4)n(Cc4ccc(S(C)(=O)=O)cc4)c3C[C@H]2CN1C(=O)c1ccccc1,-6.4%,i
Cc1onc(-c2c(Cl)cccc2Cl)c1C(=O)O/N=C(\C#N)c1ccccc1,-14.7%,-5.3%
Cc1oc(-c2cccc(Cl)c2)nc1CN1CCC(C(=O)NCCc2ccc(Cl)cc2)CC1,-11.4%,-20.1%
COc1cccc(N2CCN(C(=O)c3ccc(NC(=O)c4nsc5ccccc45)cc3)CC2)c1,-9.7%,-8.6%
Cc1ccc(N(C(=O)c2ccco2)C(C(=O)NC2CCCC2)c2cccnc2)cc1C (configuration not stated),-9.8%,-16.9%
CN=C(c1ccco1)n1c(=S)nc(-c2ccco2)n(C)c1=S,12.6µM*,?
O=c1[nH]c(=S)[nH]c2nc[nH]c12,-17.1%,15.1%
O=C(/C=C/c1cc([N+](=O)[O-])ccc1OC(F)F)NCc1ccc(F)cc1,-5.5%,/
CCS(=O)(=O)c1ccc2c(c1)NC(=O)C(CCCl)O2 (configuration not stated),-11.5%,-11.5%
C=CCCCCCCCCCCCC(O)CC(O)COC(C)=O (configuration not stated) (tested in a mixture with another compound),-6.9%,-16.5%
CN(CC(=O)NC(=O)NCc1ccco1)CC(=O)Nc1ccccc1Cl,-9.0%,-14.7%
CCOc1ccccc1/C=N/Nc1ccccc1[N+](=O)[O-],-9.8%,-8.9%
COc1ccc(C2CC(C)=C(C#N)S(=O)(=O)C2C#N)cc1 (configuration not stated),-17.4%,-21.3%
COCCN(CCOC)Cc1cc(=O)oc2cc(OC)c(Cl)cc12,-10.1%,7.9%
CC(C)CC(NC(=O)C1CCCCC1)C(=O)NC(C)c1ccccc1 (configuration not stated),-22.4%,-20.0%

Later entries
compound,Vaccinia Venus,Vaccinia mCherry
O=C(CSc1ccc(F)cc1)NNC(=O)c1ccccc1Br,-5.7%,10.9%
COc1ccc(-c2nc(C)c(CCNC(=O)C(=O)Nc3c(C)cccc3C)s2)cc1OC,?,?
CN=C1S/C(=C\c2ccc(N3CCCC3)c(F)c2)C(=O)N1C,-7.4%,?
Cc1ccc(COc2ccc(/C=N/NC(=O)c3ccc(CN4CCOCC4)cc3)cc2)cc1,2.9%,?
CCOC(=O)c1noc2ncnc(Nc3ccc(C)c(F)c3)c12,1.5%,-5.6%
CCOC(=O)CNC(=O)Nc1cc(C(=O)NCc2cccc(F)c2)ccc1N1CCCC1,-2.0%,-11.2%
Cc1cc2nc(-c3ccc(SCc4ccc(C(=O)O)cc4)nc3)[nH]c2cc1C,-7.8%,-15.3%
Cn1cnnc1SCc1nc(N)nc(Nc2ccccc2)n1,-4.8%,-6.7%
O=C(NCc1cccc(C(F)(F)F)c1)c1csc([C@@H]2C[C@H](O)[C@@H](CO)O2)n1,460.6%[activator],-7.5%
CCN1CCN(S(=O)(=O)c2cc3c(cc2Cl)NC(=O)CO3)CC1,-8.2%,-9.6%
COc1ccccc1OCC(=O)Nc1ccc(NC(=O)COc2ccccc2OC)cc1,-18.8%,-1.0%
c1ccc(C2CC(c3cccs3)n3nnnc3N2)cc1 (configuration not stated),8.4%,-1.2%
CCOC(=O)c1c(C)[nH]c(C)c1S(=O)(=O)NCC(=O)Nc1cccc(Cl)c1,-5.2%,-7.3%
COC(=O)c1ccc(-c2nc3cc(NC(C)=O)ccc3o2)cc1,-0.4%,-9.5%
O=C(c1[nH]c(C(F)(F)F)nc1-c1ccccc1)N1CCCN(Cc2ccc(F)cc2)CC1,1.0%,0.7%

In another format: entries from further up.
> CC(C)CC(NC(=O)C1CCCCC1)C(=O)NC(C)c1ccccc1 (configuration not stated)
  Vaccinia Venus: -22.4%; Vaccinia mCherry: -20.0%

> O=C(CSc1ccc(F)cc1)NNC(=O)c1ccccc1Br
  Vaccinia Venus: -5.7%; Vaccinia mCherry: 10.9%

Next part.
compound,Vaccinia Venus,Vaccinia mCherry
COc1ccccc1NC(=O)CN1C(=O)c2ccccc2Sc2ccc(C(=O)N3CCCC3)cc21,4.4%,-1.1%
Cc1cc(NC(=O)CC2CCCC2)n(-c2nc3ccccc3[nH]2)n1,?,?
COc1ccc(CCNc2oc(COc3cccc(C)c3)nc2C#N)cc1OC,-5.2%,-22.1%
COc1ccc(CCNc2ncnc3c2c(C)c(C)n3CCCN(C)C)cc1OC,-11.3%,-8.0%
CCN(CC)C(=O)Cn1cc(C(=O)C(=O)N2CCc3ccccc32)c2ccccc21,-6.2%,i
O=C1C=C(Nc2ccc(F)cc2)c2ccccc2C1=O,-16.9%,?
Cc1ccc(NC(=O)c2noc3c2CC(C(C)(C)C)CC3)cc1 (configuration not stated),-12.0%,-12.5%
CCOC(=O)c1ccc(N2CCN(c3ccccc3F)CC2)c(NC(=O)Nc2ccccc2)c1,-11.6%,-16.6%
O=C(Nc1ccccc1N1CCCC1)C1CCN(S(=O)(=O)c2cccc(C(F)(F)F)c2)CC1,-11.9%,?
COc1cccc2sc(=NC(=O)CS(=O)(=O)c3ccccc3)n(C)c12,-24.0%,i
COc1ccc(NC(=O)c2c(NC(=O)CNCC(C)C)sc3c2CCC3)c(OC)c1,-19.3%,i
NS(=O)(=O)c1ccc(NC(=O)CN2CCCc3ccccc32)cc1,24.2%,?
CC(C)(C)Cc1c(-c2ccc(C#N)cc2)nc2ccc(Cl)cn12,-1.0%,-7.4%
CCOC(=O)C1CCCN(Cc2cn[nH]c2-c2ccc(F)cc2F)C1 (configuration not stated),2.2%,-1.0%
O=c1c(F)cn(C2CCCO2)c(=O)n1Cc1ccccc1Cl (configuration not stated),-3.1%,-4.3%

More entries
compound,Vaccinia Venus,Vaccinia mCherry
CC(=O)Cc1nsc(NC(=O)c2ccc(COc3cccc(C)c3)o2)n1,-5.8%,-14.5%
Cc1ccc(NC(=O)CSc2nccn2C2CCCC2)cc1,-12.8%,-13.8%
Cc1ccc(-c2nc(CS(=O)CC(=O)NCCN3CCCC3)c(C)o2)cc1 (configuration not stated),-7.9%,-12.5%
CCC(C)Nc1nc2c(c(=O)[nH]c(=O)n2C)n1Cc1ccc(F)cc1 (configuration not stated),8.9%,-10.0%
CSc1ncccc1C(=O)NCC(c1cccs1)N1CCOCC1 (configuration not stated),-15.2%,-17.1%
CCN(CC(=O)N1CCC(C)CC1)S(=O)(=O)c1ccc(C)cc1,-13.7%,i
COCCNC(=O)/C(C#N)=C/c1cccs1,-0.8%,i
NS(=O)(=O)c1ccc(N/N=C/c2ccc(O)cc2O)c([N+](=O)[O-])c1,-25.4%,?
COC(=O)c1cc(COc2ccc3oc(C)c(C(=O)OC)c3c2)c(C)o1,-14.0%,-17.4%
CCOC(=O)c1cnc2ccc(OC)cc2c1NCCc1ccccc1,-27.0%,-29.7%
O=c1c2ccccc2nnn1Cc1ccc(F)cc1,-1.5%,i
Cc1cccc(C)c1NC(=O)CCS(=O)(=O)c1ccc(Br)cc1,-1.6%,i
O=C(COc1ccc([N+](=O)[O-])cc1)Nc1cccnc1,-2.8%,-0.9%
COc1ccc2[nH]c(=O)c(CN(Cc3cccs3)Cc3nnnn3C(C)(C)C)cc2c1,-16.7%,-26.9%
CC(C)CC(NS(=O)(=O)c1ccc2c(c1)oc(=O)n2C)C(=O)NC1CCCc2ccccc21 (configuration not stated),-4.0%,-8.8%

Remaining list, next part.
compound,Vaccinia Venus,Vaccinia mCherry
Cc1ccc2nc(-c3cccc(Br)c3)c(Cc3ccccn3)n2c1,-3.5%,8.5%
CC(C)Cc1nnc(NC(=O)c2ccc3c(c2)NC(=O)C(C)S3)s1 (configuration not stated),-8.0%,-10.9%
N#Cc1c(C(F)(F)F)cc(-c2cccs2)nc1SCc1cccnc1,?,?
COc1ccc(OCC(O)CNCCNc2nccc(C(F)(F)F)n2)cc1 (configuration not stated),-14.2%,-2.5%
O=C(CC1SCCNC1=O)NCc1ccccc1 (configuration not stated),-4.0%,?
Cc1ccc(CNC(=O)Cc2coc3cc(C)cc(C)c23)cc1,-2.9%,-1.2%
O=C(c1ccco1)N1CCN(C2CN(Cc3ccc(F)cc3)S(=O)(=O)C2)CC1 (configuration not stated),-7.5%,-0.2%
CCCCNC(=O)c1onc(CCl)c1C(=O)OC,?,?
Cc1cccc(-n2c(O)c(/C=N/Nc3nc4c(c(=O)n(C)c(=O)n4C)n3C)c(=O)[nH]c2=S)c1,-6.3%,-0.2%
CCCC1(c2ccccc2)NC(=O)N(CC(=O)Nc2ccccc2C(F)(F)F)C1=O (configuration not stated),-5.3%,-10.6%
O=C(c1ccco1)N1CCN(C(c2ccccc2Cl)c2nnnn2Cc2cccs2)CC1 (configuration not stated),-19.0%,?
O=C(c1ccc2ccccc2c1)N1CCCC1,-12.5%,i
CCc1cccc(NC(=O)CCc2c(C)nc3c(c2C)c(=O)n(C)c(=O)n3C)c1,-5.4%,6.5%
CCCN(CC(=O)Nc1ccc(C(N)=O)cc1)CC(=O)Nc1cc(Cl)ccc1Cl,-5.9%,i
Cc1ccccc1N=Nc1c(C)[nH]n(-c2ccccc2)c1=O,-10.2%,-7.2%

Other compounds follow:
compound,Vaccinia Venus,Vaccinia mCherry
COc1cc(CC(=O)Nc2nc(-c3ccccc3)c(C(C)=O)s2)cc(OC)c1OC,-15.5%,-27.1%
Cc1ccc(S(=O)(=O)CCN2CCN(c3ccccc3)CC2)cc1,-29.8%,?
Cc1nn(-c2ccccc2)c2sc(C(=O)OCC(=O)N3CCCCC3)cc12,-9.7%,-14.5%
COc1cc(Cl)c(C)cc1NC(=O)c1cnn(-c2ccc(F)cc2F)c1C1CCN(C(=O)OC(C)(C)C)CC1,-14.6%,-4.9%
CN(Cc1ccccc1)c1ccc(C(CC(N)=O)NC(=O)Cc2cccc3ccccc23)cc1[N+](=O)[O-] (configuration not stated),-9.4%,-3.1%

Compounds were not picked by outcome; any-hit rate near 0.82%.
